# Screening data (PubChem BioAssay)
# H5N1 antiviral: antiviral screen in MDCK cells, H5N1 avian flu. cytopathic effect, luminescence, 72 h; stronger effect = higher value; no value below 0 was filed and about half of the inactive calls have no number; reference of the scale not given here. inhibition, % at 50 µM. 96,000 compounds, 0.07% hits; in the data active = inhibition above about 25%
# * hit, by the source's call; i = inactive. Not all compounds are listed, so the mix of outcomes need not match the whole.
SMILES,H5N1 antiviral
COC(=O)COc1ccc(S(=O)(=O)NCc2ccco2)cc1,i
C[n+]1c2n(c3ccccc31)N=C(c1ccc(Cl)cc1)CS2,3.5
Cc1cc(SCC(=O)c2ccc3c(c2)OCO3)nc2ccccc12,1.1
CCCOc1ccc(/C=N/O)cc1,i
NS(=O)(=O)c1ccc(CCNC(=O)CCC2COc3ccccc3O2)cc1 (stereo unspecified),i
CCOC(=O)N1CCN(C(=O)CN(C2CCCCC2)S(=O)(=O)c2ccc(C)cc2)CC1,i
CCOC(=O)CSc1nc2cc(C)cc(C)c2cc1C#N,0.3
Cc1cc2cc(CNC(=O)NC3CCCCC3)ccc2n1C,2.5
CS(=O)(=O)N(CC(=O)Nc1ccccc1C(=O)N1CCOCC1)c1ccc2c(c1)OCO2,0.2
CCOc1cc(/C=N/NC(=O)CNc2ccc(C)cc2)ccc1OC(=O)c1ccccc1,0.4
CCCOc1ccc(CSc2nc3ccccc3[nH]2)cc1,i
Cc1ccc2[nH]c3c(c2c1)CN(C(=O)CN1CCN(c2ccccc2F)CC1)CC3,i
CC(C)C(c1nnnn1Cc1ccc(F)cc1)N1CCN(C(=O)c2ccco2)CC1 (stereo unspecified),2.0
COCCSc1nnc(-c2cccc(C#N)c2)n1C,0.2
C/C(N)=C(\C#N)C(=O)NCc1ccccn1,i
CCOc1ccc(S(=O)(=O)NCc2ccco2)cc1,3.5
O=C(O)/C(=C1/OC(=O)c2ccccc21)c1ccccc1,0.2
CCOC(=O)C1CCCCN1Cc1cc(Cl)ccc1O (stereo unspecified),0.3
Cc1cc(C)c2c(c1)c(C)cc1nnc(SCC(=O)c3cccs3)n12,0.1
C/C(=C\C(=O)c1ccccc1)NCc1ccc(F)cc1,i
COC(C(=O)Nc1ccccc1F)c1ccccc1 (stereo unspecified),0.6
CC(=O)N1CCN(C(=O)Cn2c(=O)oc3ccccc32)CC1,1.2
Cc1cc(O)ccc1Nc1nc(-c2sc(N)nc2C)cs1,i
CN(C(=O)c1cc2sccc2n1C)C1CCCCC1,i
CN(CC(=O)O)S(=O)(=O)c1cc(Cl)ccc1Cl,0.7
COc1ccc(-c2nnc(SCC(=O)N3CCOCC3)o2)cc1,1.5
CCOC(=O)c1ccc(NC(=O)c2ccccc2)cc1,i
Clc1ccc(CSc2nnc(-c3ccc4c(c3)OCO4)o2)cc1,0.6
O=C(/C=C/Nc1ccc(OC(F)(F)F)cc1)C(F)(F)F,i
CCOC(=O)c1oc2ccc(S(=O)(=O)n3nc(-c4ccc(OC)cc4)cc3N)cc2c1C,3.1
Clc1ccc(SCc2cn3ccsc3n2)cc1,16.8
Clc1ccc(Sc2cc(N3CCOCC3)nc(-c3ccccc3)n2)cc1,1.8
CC(C)n1c(SCC(N)=O)nc2c1c(=O)[nH]c(=O)n2C,0.4
O=C(NCc1cccc(F)c1)c1noc2c1CCCC2,0.0
FC(F)(F)c1cc(-c2ccco2)nc(NCc2cccnc2)n1,0.0
Cn1c(C(C#N)C(=O)c2ccco2)nc2ccccc21 (stereo unspecified),1.4
CCN(CC)C(=O)CP(=O)(c1ccccc1)c1ccccc1,i
COc1ccc(CN(Cc2ccccn2)C(=O)CN2C(=O)COc3ccccc32)cc1,i
N/C(COc1cccc(Cl)c1)=N\NS(=O)(=O)c1ccccc1,1.2
Cc1ccc(NS(=O)(=O)c2cc(C(=O)N3CCOCC3)ccc2C)cc1C,1.1
Cc1cc(NC(=O)CSc2ccc3nnc(-c4cccs4)n3n2)no1,2.9
CCOC(=O)C1=C(C)C(c2ccccc2OC)NC(=O)N1 (stereo unspecified),i
CC(=NCCCn1ccnc1)C1=C(O)c2ccccc2C1=O,0.6
CCn1c(=O)c2cc(C(=O)N3CCOCC3)sc2c2ccccc21,i
COc1ccccc1C(c1nnnn1C1CCCC1)N1CCN2CCCC2C1 (stereo unspecified),i
CCC(C)N=C1SCC(C)(/C=N/O)S1 (stereo unspecified),0.3
CCOCCn1c(SCCc2ccccc2)nc2c1c(=O)[nH]c(=O)n2C,0.3
Cc1cccc(SCc2noc(C(=O)NCC3CCCO3)c2C(=O)O)c1 (stereo unspecified),i
c1cncc(-c2nn3cnnc3s2)c1,1.4
Cc1ccc(-n2nnnc2SCC(=O)Nc2ccccc2N2CCCCC2)cc1C,2.2

# Other results follow.
SMILES,H5N1 antiviral
O=C1OC(c2ccccc2)/C(=C(/O)c2ccccc2)C1=O (stereo unspecified),i
CCC(=O)N1CCN=C1SCc1ccc(Cl)cc1,2.6
CC(NC(=O)c1cc(-c2ccc3c(c2)OCO3)nc2ccccc12)C(C)(C)C (stereo unspecified),i
Cc1ccc2c(c1)N(CCC(=O)NCc1cccnc1)C(=O)CO2,0.3
O=C(CC1(O)C(=O)Nc2ccc(Br)cc21)c1ccc2c(c1)OCO2 (stereo unspecified),i
Cc1cccc(/C=N\Nc2cn[nH]c(=O)c2Cl)c1,i
O=C(NC1CCS(=O)(=O)C1)C12CC3CC(CC(C3)C1)C2 (stereo unspecified),0.8
COc1ccc(-c2noc(-c3ccccc3C(=O)Nc3cccc(OC)c3)n2)cc1,i
CNc1nc(Sc2ccc(C)cc2)cc(C(F)(F)F)n1,i
CSCCC(C(=O)NC1=NCCS1)N1C(=O)c2ccccc2C1=O (stereo unspecified),3.5
CN1CC=C2C(C#N)=C(N)C(C#N)(C#N)[C@H](c3cccc(Cl)c3)C2C1 (stereo partly specified),1.2
COc1ccc(CN2CN(C(C)C)CSC2=S)cc1,i
CN(C)c1ccc(C(=O)c2ccc(N(C)C)cc2)cc1,0.7
Cc1nc2c(C)cccc2cc1C(=O)N/N=C/c1ccc(N(C)C)cc1,i
CCc1nc2c(c(=O)[nH]1)C1(CCCC1)Cc1ccccc1-2,i
CCN(CC)S(=O)(=O)c1ccc(C(=O)NC2=C(C(=O)OC)SCC2)cc1,i
O=C(Cn1cnc2c(nnn2-c2ccccc2)c1=O)NCC1CCCO1 (stereo unspecified),i
COc1ccc(C2CC(c3ccccc3)Nc3nc(NC(=O)c4cccs4)nn32)cc1 (stereo unspecified),0.0
COc1ccc(NC(=S)NNC(=O)C(C)n2nc(C)c([N+](=O)[O-])c2C)cc1 (stereo unspecified),0.2
Cc1ccc(Oc2ncccc2/C=N/O)cc1,i
N#CC1=C(S)N=C(N)C(c2nc(-c3ccccc3)cs2)C12CCCC2 (stereo unspecified),i
CC1(C)NC(=O)N(CCSc2ccc(Cl)cc2)C1=O,i
CCOCCCNC(=O)C1c2ccccc2C(=O)N2CCc3ccccc3C12 (stereo unspecified),0.8
CCSc1nnc(NC(=O)C(CC)(C(F)(F)F)C(F)(F)F)s1,i
CCOc1c(OC)cccc1C1CC(=O)Nc2cc3c(cc21)OCCO3 (stereo unspecified),2.3
COc1ccc(CN(Cc2ccncc2)C(=O)CCC(=O)O)cc1,0.5
O=C1CCCN1CN(C(=O)c1ccc2c(c1)OCO2)c1ccc(F)cc1,0.6
COc1ccc(Cc2nnn(CC(=O)O)n2)cc1,i
Cc1ccc(C)c(Cn2c(C(C)O)nc3ccccc32)c1 (stereo unspecified),1.2
CCOc1cccc(Oc2ncccc2C(=O)/C(C#N)=C/N(C)C)c1,i
Cc1cc(C)n2nc(Cc3ccccc3)nc2n1,i
COC(=O)c1ccc2c(c1)NC(=O)C1CCCN21 (stereo unspecified),0.4
Cc1occc1C(=O)Nc1ccc2c(c1)CCC2,i
CC(=O)N1CCN(C(=O)CCc2nc3ccccc3c(=O)[nH]2)CC1,i
Cc1ccc(SCc2nc(-c3ccncc3)no2)cc1,0.2
Cc1ccc2nsnc2c1S(=O)(=O)N1CCCC1,0.7
Cc1c(C(=O)NCCCN2CCCC2=O)oc2ccc(S(=O)(=O)N3CCOCC3)cc12,i
COc1c(S(=O)(=O)N2CCCC2)ccc(Cl)c1Cl,1.1
O=C(CCCCn1c(=O)[nH]c2ccccc2c1=O)NCCC1=CCCCC1,0.4
Cc1cc(C(C)(C)C)nc2[nH]n(-c3ccccc3)c(=O)c12,0.2

# As a short view, some entries already given:
SMILES,H5N1 antiviral
Cc1occc1C(=O)Nc1ccc2c(c1)CCC2,i
CC(=O)N1CCN(C(=O)CCc2nc3ccccc3c(=O)[nH]2)CC1,i
Cc1ccc(SCc2nc(-c3ccncc3)no2)cc1,0.2
Cc1ccc2nsnc2c1S(=O)(=O)N1CCCC1,0.7
Cc1c(C(=O)NCCCN2CCCC2=O)oc2ccc(S(=O)(=O)N3CCOCC3)cc12,i
COc1c(S(=O)(=O)N2CCCC2)ccc(Cl)c1Cl,1.1

# Some of these compounds in order of SMILES length, highest first.
SMILES,H5N1 antiviral
COc1ccc(NC(=S)NNC(=O)C(C)n2nc(C)c([N+](=O)[O-])c2C)cc1 (stereo unspecified),0.2
Cc1c(C(=O)NCCCN2CCCC2=O)oc2ccc(S(=O)(=O)N3CCOCC3)cc12,i
COc1ccc(C2CC(c3ccccc3)Nc3nc(NC(=O)c4cccs4)nn32)cc1 (stereo unspecified),0.0
CCN(CC)S(=O)(=O)c1ccc(C(=O)NC2=C(C(=O)OC)SCC2)cc1,i
N#CC1=C(S)N=C(N)C(c2nc(-c3ccccc3)cs2)C12CCCC2 (stereo unspecified),i
O=C1CCCN1CN(C(=O)c1ccc2c(c1)OCO2)c1ccc(F)cc1,0.6
CCOCCCNC(=O)C1c2ccccc2C(=O)N2CCc3ccccc3C12 (stereo unspecified),0.8
O=C(Cn1cnc2c(nnn2-c2ccccc2)c1=O)NCC1CCCO1 (stereo unspecified),i
COc1ccc(CN(Cc2ccncc2)C(=O)CCC(=O)O)cc1,0.5
Cc1ccc(C)c(Cn2c(C(C)O)nc3ccccc32)c1 (stereo unspecified),1.2
CC1(C)NC(=O)N(CCSc2ccc(Cl)cc2)C1=O,i
COC(=O)c1ccc2c(c1)NC(=O)C1CCCN21 (stereo unspecified),0.4
Cc1ccc(SCc2nc(-c3ccncc3)no2)cc1,0.2
Cc1ccc2nsnc2c1S(=O)(=O)N1CCCC1,0.7
COc1ccc(Cc2nnn(CC(=O)O)n2)cc1,i
Cc1cc(C)n2nc(Cc3ccccc3)nc2n1,i
Cc1ccc(Oc2ncccc2/C=N/O)cc1,i

# Additional structures follow.
SMILES,H5N1 antiviral
COc1ccc(CCNC(=O)c2ccc(Cl)cc2)cc1,i
O=C(CSc1nc2nc(-c3cccs3)cc(C(F)(F)F)c2c(=O)[nH]1)NCc1ccco1,1.8
CC(C)C[C@H](NC(=O)OC(C)(C)C)C(=O)N/N=C/c1ccc2nccnc2c1,6.4
CC(C)Cn1c(SCc2nnc(-c3cccs3)o2)nc(O)cc1=O,0.2
CCOC(=O)C1=C2N(C)c3ccccc3N2CCC1=O,0.6
CCc1c(C)c(C#N)c2nc3ccccc3n2c1N1CCN(c2cc(C)ccn2)CC1,0.2
CCc1[nH]c(=O)c(C#N)c2c1COC(C)(C)C2,0.9
Cc1cc(C(=O)CN2C(=O)NC3(CCCc4ccccc43)C2=O)c(C)n1C (stereo unspecified),0.2
Cn1cc(S(=O)(=O)N2CCN(c3ccc(F)cc3)CC2)c(=O)n(C)c1=O,i
COc1cccc(OCC(=O)NC2CCCCC2)c1,i
CCCCN(Cc1cc2cc(OC)ccc2[nH]c1=O)C(=O)c1ccccn1,0.4
CCN(CC(=O)NCc1cccs1)c1ccc(S(=O)(=O)N2CCOCC2)cn1,1.3
O=C1NC(=O)C2(Cc3ccccc3N3CCCC32)C(=O)N1c1ccc(Cl)cc1 (stereo unspecified),4.4
COc1ccc(OC)c(S(=O)(=O)n2nnc3ccccc32)c1,0.1
CCN(CC)CC(=O)c1ccc(-c2ccccc2)cc1,i
c1ccc(CCn2nnnc2CN2CCc3ccccc32)cc1,3.3
CC1(C)Oc2ccc(C(=O)NC3CCCC3)cc2N(CC(=O)NC2CCCC2)C1=O,1.5
CCOc1ccccc1N(C(=O)c1ccco1)C(C(=O)NC1CCCC1)c1cccnc1 (stereo unspecified),9.2
CCN(CC)S(=O)(=O)c1cccc(C(=O)N[C@H](C(=O)NCc2ccc(Cl)cc2)C(C)C)c1,i
CCN(CCCNC(=O)CN(C)S(=O)(=O)c1ccc2c(c1)CCC(=O)N2)c1cccc(C)c1,1.3
CCOc1cc2[nH]c(=O)n(CCC(=O)N3CCN(c4ccccc4OC)CC3)c(=O)c2cc1OCC,1.2
CSc1ccccc1NC(=O)c1cc(C(C)C)on1,i
CC(C)(C)c1ccc(C(=O)N/C(N)=N/c2nc3ccccc3o2)cc1,0.8
COc1ccc(C(=O)c2ccc(Cl)cc2)c2ccccc12,i
CC(Sc1ccccn1)C(=O)Nc1ccc(S(N)(=O)=O)cc1 (stereo unspecified),0.2
O=C1C(=O)N(CCN2CCOCC2)C(c2ccccn2)/C1=C(/O)c1ccccc1 (stereo unspecified),1.2
CCCCCOC(=O)Cn1c(=O)oc2ccccc21,0.4
CCC(C)(C)n1c(=O)[nH]c2c(c1=O)CCC2,i
CCOC(=O)Cn1nnnc1CN(Cc1ccc(OC)cc1)Cc1cc2cc(CC)ccc2[nH]c1=O,i
NS(=O)(=O)c1ccc(NC(=O)CSC2=NC(=O)C(c3ccccc3)C(=O)N2)cc1 (stereo unspecified),i
CC1Cc2nc(SCC(=O)N3CCOCC3)n(-c3ccccc3)c(=O)c2S1 (stereo unspecified),i
COc1ccc(NC2CC(=O)N(c3cccc(C)c3)C2=O)cc1 (stereo unspecified),i
O=C(CN1C(=O)C2(OCCO2)c2ccccc21)c1ccc(Br)cc1,i
COc1ccc(/C=C/C(=O)c2ccccc2O)cc1CN1CCOCC1,i
CCOCC(=O)Nc1cc(OC)c(Cl)cc1OC,0.8
c1ccc(N2CCN(c3ccc4nncn4n3)CC2)nc1,2.8
O=C(CSc1n[nH]c(-c2ccc(S(=O)(=O)N3CCCCC3)cc2)n1)Nc1nccs1,0.4
CCCC1(CCC)C(=O)NC(=Nc2ccccc2)NC1=O,0.1
Cc1ccc(N/C(N)=N/c2nc3c(c(=O)[nH]2)CCCC3)c(C)c1,i
O=C(c1cc(C2CC2)on1)N1CCN(c2ccc(F)cc2)CC1,i
COc1ccc2nc(C)cc(SCC(=O)Nc3c(C)cc(C)cc3C)c2c1,i
O=C(CCSc1ccccc1)NCC1CCCO1 (stereo unspecified),i
COc1ccc(OC)c(N(CC(=O)NCc2ccccn2)S(C)(=O)=O)c1,i
COc1ccc(C2=Nn3c(nnc3-c3ccncc3)SC2)cc1OC,23.0
COc1cc(C)c2occ(/C(C)=N\O)c2c1,i
COCCn1nnnc1C(c1ccc(OC)c(OC)c1)N1CCc2ccccc21 (stereo unspecified),0.3
O=S(=O)(c1cccc(-n2cnnn2)c1)N1CCOCC1,i
CCCNC(=S)NC1CCCC1,i
